# TRPML1 blocker – qHTS for Inhibitors of the Human Mucolipin Transient Receptor Potential 1 (TRPML1) | Mucolipin-1 (Homo sapiens), Q9GZU1 | TRPML1-inducible cells, Ca2+ dye fluorescence, FDSS; active compounds read low; inhibition of EC80 agonist-evoked calcium signal | activity change, negative = inhibition, % (concentration not given with the values) | hit rate 0.02% among 390,000 | AID 624415, 2012; in the data active means activity change below about -50%; inconclusive means about -30% to -50%; inactive means above about -30%;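 note: stimulus is agonist 54-4 at its EC80 concentration; % is set by controls: 0 for no effect and ±100 for the full control effect; the text of the record puts the active cut at -80%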
# Target sequence (Q9GZU1 whole entry, looked up): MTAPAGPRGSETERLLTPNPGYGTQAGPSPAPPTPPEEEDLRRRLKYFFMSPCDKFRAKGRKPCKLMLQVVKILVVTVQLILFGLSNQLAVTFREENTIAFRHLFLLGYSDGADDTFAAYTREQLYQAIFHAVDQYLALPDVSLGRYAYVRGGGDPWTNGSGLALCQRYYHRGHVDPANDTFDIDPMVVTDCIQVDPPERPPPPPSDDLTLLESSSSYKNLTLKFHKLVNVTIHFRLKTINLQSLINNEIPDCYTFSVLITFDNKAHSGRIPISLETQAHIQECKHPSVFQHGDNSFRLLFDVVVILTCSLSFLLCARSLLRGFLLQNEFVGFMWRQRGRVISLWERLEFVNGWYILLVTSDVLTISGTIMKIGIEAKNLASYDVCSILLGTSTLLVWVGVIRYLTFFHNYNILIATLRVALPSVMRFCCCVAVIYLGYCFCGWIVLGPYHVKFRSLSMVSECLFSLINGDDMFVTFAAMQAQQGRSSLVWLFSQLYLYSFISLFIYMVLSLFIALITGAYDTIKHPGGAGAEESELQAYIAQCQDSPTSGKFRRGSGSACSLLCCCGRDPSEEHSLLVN
#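 Calcium fluorescence in TRPML1-DL cells induced overnight with Tet: a 110 s read after compound pin addition, then a 110 s antagonist read after challenge with 54-4 at 4 uM final (EC80).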
# TRPV1 potentiator – HTS Assay for Compounds that Act as Potentiators of the Vanilloid Receptor 1; hit rate 0.02% among 320,000; TRPV1-expressing cells, Fluo-8 calcium influx, capsaicin EC20 potentiation; host cell line not named in the record; control for the full effect not named in the record; potentiation, % at 8.33 µM; Transient receptor potential cation channel subfamily V member 1 (Homo sapiens), Q8NER1; active means potentiation above 80%; inconclusive means 30% to 80%; inactive means below 30%; note: 0% is about no effect
#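 TRPV1-expressing cells were cultured overnight at 35.5C and loaded with Fluo-8 calcium dye for 40 to 90 min at room temperature. After a 10 s baseline, compound was added and calcium influx was read kinetically for 3 min (ex 480/em 520 nm).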
# Sfp PPTase inh – qHTS Assay for Inhibitors of Bacillus subtilis Sfp phosphopantetheinyl transferase (PPTase); Biochemical Sfp PPTase activity, qHTS; 4'-phosphopantetheinyl transferase ffp (Bacillus subtilis), Q9F4F7; hit rate 3.5% among 310,000; Potency, µM, without a hit: max response, negative = inhibition, hits mostly inhibitors; active = well fitted inhibition curve with a large enough effect; inconclusive = small, poorly fitted or top-dose-only effect, or another doubt; inactive = no such curve, though single readings can be large or run the other way;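 note: the enzyme is Sfp with the accession as filed and its product quenches rhodamine fluorescence; potency is the fitted concentration of half-maximal effect; 0% = enzyme reaction without inhibitor and -100% = no enzyme wells; top concentration of the series not given in the record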
#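 Fluorescence-quenching assay with 15 nM Sfp, 5 uM rhodamine-CoA and 12.5 uM BHQ-2-labelled ybbR peptide in pH 7.6 Hepes/MgCl2 buffer. Enzyme was pre-incubated with compound for 15 min at room temperature. Rate was taken from the 30-min fluorescence change (525/598 nm).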
# gsp agonist – qHTS for Agonist of gsp, the Etiologic Mutation Responsible for Fibrous Dysplasia/McCune-Albright Syndrome: qHTS; Potency, µM (doses to about 76.9 µM), without a hit: top-dose activation (cAMP increase), usual class: activators; gsp mutant cells, cAMP HTRF, 30 min; control for the full effect not named in the record; AID 624287, 2012; hit rate 0.13% among 340,000; active = well fitted activation curve with a large enough effect; inconclusive = small, poorly fitted or top-dose-only effect, or another doubt; inactive = no such curve, though single readings can be large or run the other way; cell line not stated here;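 note: phosphodiesterase inhibitor Ro 20-1724 added with compounds to block cAMP breakdown; potency is the fitted concentration of half-maximal effect; nearly all actives have a fitted effect of over 60% in size; about a fifth of the inactives were tested at one dose only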
#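 Cells in DMEM/10% FBS with G418 were pretreated with compounds in DMSO plus […] (300 uM stock) for 30 min at 37C. cAMP was measured by HTRF (cAMP-d2 plus anti-cAMP antibody-K) after 30 min at room temperature.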
# gsp antagonist – qHTS for Antagonists of gsp, the Etiologic Mutation Responsible for Fibrous Dysplasia/McCune-Albright Syndrome: qHTS; gsp-mutant cells, cAMP HTRF, 30 min; control for the full effect not named in the record; Potency, µM (series often up to 76.9 µM), for inactives: at the top dose activity change, negative = inhibition, hits mostly inhibitors; hit rate 0.4% among 340,000; AID 624288, 2012; active = falling curve of any shape with a large fitted effect; inconclusive = falling curve, mostly with a smaller effect; inactive = flat or rising curve; cell line not stated here;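 note: intracellular cAMP measured with PDE inhibitor Ro 20-1724 present during compound exposure; potency is the fitted concentration of half-maximal effect; % is set by controls: 0 for no effect and ±100 for the full control effect; nearly all actives have a fitted effect of over 65% in size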
#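 Cells, 2000/well, grown 16–24 h in DMEM 10% FBS with 0.5 mg/ml G418, then compounds plus […] (300 uM addition stock), 30 min at 37C. cAMP read by HTRF (cAMP-d2 and anti-cAMP antibody-K in lysis buffer) after 30 min RT.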
# ClpP mod – qHTS Assay for Activators of ClpP | ATP-dependent Clp protease proteolytic subunit (Bacillus subtilis (strain 168)), P80244 | purified B. subtilis ClpP, FRET peptide cleavage, 20 min | Potency, µM (doses to about 57.5 µM), for inactives: at the top dose activity change, negative = active | hit rate 1.9% among 340,000; active = well fitted falling curve with a large enough effect; inconclusive = small, poorly fitted or top-dose-only effect; inactive = no such curve, though single readings can be large or run the other way; note: potency is the fitted concentration of half-maximal effect; the source files actives as falling curves though it sought activators and does not explain the sign; nearly all actives have a fitted effect of over 65% in size; many hits overshoot -100%
# Target sequence (P80244 whole entry, looked up): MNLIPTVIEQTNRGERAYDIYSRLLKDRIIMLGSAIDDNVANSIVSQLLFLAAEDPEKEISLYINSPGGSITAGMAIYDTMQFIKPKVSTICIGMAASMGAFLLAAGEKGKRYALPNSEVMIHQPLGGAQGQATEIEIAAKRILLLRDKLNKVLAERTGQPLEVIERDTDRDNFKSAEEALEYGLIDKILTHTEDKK
#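 FRET quenching reversal measured ClpP activation: 10 microg/mL B. subtilis ClpP at pH 8 with the FRET-FV decapeptide, read at 430 nm after 320 nm excitation. The 20-min minus 0-min signal was scaled between DMSO/no-enzyme wells and ADEP (5.8 microM final).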
# Menin MLL FP FL – qHTS Assay for Inhibitors Targeting the Menin-MLL Interaction in MLL Related Leukemias: Competition With Fluorescein Labeled MLL-derived Peptide; AID 1766, 2009; Fluorescence polarization, fluorescein-MLL peptide displacement from menin; FP activity change, % at 61.4 µM; 290,000 tested, under 10 active; inconclusive = falling polarisation curve, or a change in total fluorescence; inactive = total fluorescence flat and polarisation flat or rising; no compound was filed as active; the % refers to the polarisation; negative = inhibition;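 note: % of control where 0% means no effect; inhibitors lower the polarisation; unlabelled MLL peptide was the positive control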
# Active calls of the source: *; ? = inconclusive; . = no result given; & = joins results of further samples; [ ] = another dose, or the depositor's remark. No enrichment for hits. About 4.9% of those tested had a hit in this group.
SMILES,TRPML1 blocker,TRPV1 potentiator,Sfp PPTase inh,gsp agonist,gsp antagonist,ClpP mod,Menin MLL FP FL
COCCN(C(=O)COC(=O)CC1CCCCC1)c1c(N)n(Cc2ccccc2)c(=O)[nH]c1=O,-1,1,16%,7%,10%,-0.2%,.
O=C(Nc1nnc(-c2ccccc2)o1)C1CCCN1S(=O)(=O)c1cccs1 (stereo not drawn),2,10,.,-10%[15.4 µM],-2%,.,.
COc1cc([N+](=O)[O-])ccc1N/C=C/C(=O)c1cccs1,-2,-10,0%,26%,12%,-0.1%,?
COc1ccc(N(C(C)C(=O)N/N=C(\C)C(C)(C)C)S(C)(=O)=O)cc1 (stereo not drawn),-4,-5,19%,0%,14%,-1.2%,2.4
Cc1cnc(C(=O)OCC(=O)c2cccc3ccccc23)cn1,5,-18,.,2%[15.4 µM],4%,-1.6%,.
O=C(NCCc1ccccc1F)/C(=C/c1cccnc1)NC(=O)c1ccccc1,0,0,15%,-6%,-25%,-3.3%,4.2
CS(=O)(=O)NCCNc1ccc(C(F)(F)F)cc1[N+](=O)[O-],19,-4,21%,?,-10%,2.1%,-3.0
Cc1ccc(C(C)C)c(OCC(=O)N2CCOCC2)c1,-11,-19,16%,-13%,-7%,-1.7%,2.9
Cc1ccc(C(=O)NNC(=O)c2ccc3ccccc3c2O)cc1,-2,15,23%,-5%,-9%,.,-3.6
Cc1ccc(NC(=O)c2cccc(-n3cnnn3)c2)cc1Cl,45,-15,.,-45%[inhibitor],2%,12%,.
O=C(NS(=O)(=O)Oc1cccc(F)c1)OC[C@@H]1CCCN2CCCCC12 (stereo partly drawn),27,-1,6%,-2%[15.4 µM],11%,.,-1.8
COc1ccc(C2CC(c3cccs3)=NN2C(=S)Nc2ccccc2)cc1OC (stereo not drawn),16,?,3%,10%,9%,-4.8%,1.6
COc1ccc(C(=O)Nc2nnc(Cc3ccccc3)s2)c(OC)c1,10,3,12%,-2%,-4%,.,-7.4
CC1(C)CC(=O)C2=C(C1)NC(=O)CC2c1cccc(F)c1 (stereo not drawn),6,.,-5%,-47%[inhibitor],0%,1.1%,-0.9
Cc1ccc(CN(C(=O)c2ccco2)C(C(=O)NC2CCCC2)c2ccc(N3CCOCC3)cc2)cc1 (stereo not drawn),46,-5,5%,-19%,-10%,-1.0%,-1.0
O=C(CSc1nnc(Cn2c(=O)sc3ccccc32)n1-c1ccccc1)N1CCCCCC1,7,-3,14%,4%,-10%,2.6%,2.6
COc1ccc(CN2CCC(=O)c3ccccc3S2(=O)=O)cc1,-9,.,-5%,.,.,.,-0.7
CCOC(=O)c1sc(N2N=C(C)/C(=C\c3ccc(OCC(=O)OC)cc3)C2=O)nc1C,17,13,-14%,-10%,-2%,1.0%,1.7
CCOC(=O)c1ccc(NC(=O)C2(c3ccccc3)CCCC2)cc1,-5,-12,12%,-53%[inhibitor],-12%,-2.4%,1.4
Cc1noc(C)c1-c1nnc(-c2ccc(C(F)(F)F)cc2)o1,-6,-6,15%,-6%,3%,2.6%,2.6
Cc1cc(NC(=O)c2cccs2)ncc1NC(=O)c1cccc(F)c1,33,8,9%,29%,-13%,-11%,-0.5
Cc1c(C(=O)O)sc(=S)n1CCOc1ccccc1,33,4,7%,-40%[inhibitor],-25%,-1.0%,1.1
CCCCCCc1c(C)nc(-n2[nH]c(C)c(CCO)c2=O)[nH]c1=O,-6,-3,7%,-1%[15.4 µM],17%,.,1.0
CCCCN(C)CCCNC(=O)c1cc(Nc2ccc(OC)c(OC)c2)nc2ccccc12,43,3,3%,7%,-3%,-0.9%,6.2
CN(Cc1ccccc1)C(=O)c1cc(S(=O)(=O)N2CCOCC2)cn1C,-2,-9,15%,29%,10%,-1.0%,2.1
COc1cccc(C2C3=C(CCCC3=O)Nc3nc(-c4cc(OC)c(OC)c(OC)c4)nn32)c1 (stereo not drawn),21,11,4%,?,6%,2.5%,-0.7
O=C(Cn1nnc(-c2ccccc2)n1)N/N=C/c1ccco1,21,5,17%,7%,9%,.,6.7
CC(=O)c1cccc(NC(=O)C2CCCN(S(=O)(=O)c3ccccc3)C2)c1 (stereo not drawn),-12,?,7%,4%,-19%,-1.7%,2.0
Cc1cc(N2CCOCC2)nc(-c2ccc([N+](=O)[O-])cc2)n1,-13,-15,3%,?,-4%,-1.8%,-0.4
CC1(OC(=O)C2CCCC2)C(=O)C=C2C=C(c3ccsc3)N(C(CO)CO)C=C2C1=O (stereo not drawn),19,21,-14%&-2%,.,-3%,-5.8%,?
O=C(CSc1nnc(SCc2ccc(Cl)cc2)s1)N1CCOCC1,12,20,16%,11%,-16%,1.4%,0.7
O=C(N/N=C/c1cc2c(cc1Cl)OCO2)c1ccncc1,-6,1,9%,1%,4%,1.2%,3.3
Oc1ccccc1-c1nnc(-c2ccc(C(F)(F)F)cc2)o1,0,-2,11%,7%,8%,-0.7%,3.7
COC(=O)CCSc1nc(N2CCOCC2)c2c(c1C#N)CC(C)(C)OC2,20,-6,79µM*,29%,-5%,.,-2.3
O=C(NCc1cc([N+](=O)[O-])ccc1O)c1cccnc1Sc1ccc(Cl)cc1,-6,?,-18%,-25%,-16%,0.9%,.
COc1ccc(C(=O)N=C2SC3CS(=O)(=O)CC3N2c2ccc(N(C)C)cc2)cc1OC (stereo not drawn),-7,-8,-13%,?,0%,-0.2%,.
Cc1ccccc1Oc1nc2ccccn2c(=O)c1/C=C(\C#N)C(=O)Nc1c(C)n(C)n(-c2ccccc2)c1=O,0,5,7%,-75%[inhibitor],14%,-1.1%,5.4
COc1ncnc2sc(-c3ccccc3)cc12,-1,29,-1%,-3%,0%,-26%,7.4
N#Cc1ccccc1NC(=O)CSc1nnc(-c2ccncc2)o1,-4,7,-24%,4%,4%,-0.9%,-1.5
CCCc1cc(C(N)=O)c(NC(C)=O)s1,2,-3,-11%,-12%,4%,-2.8%,2.8
Oc1ccc(F)cc1-c1cc(-c2ccc3c(c2)OCCO3)n[nH]1,5,-6,-12%,-51%[inhibitor],?,-10%,-1.3
O=C(O)C(=Cc1ccccc1)Cc1ccccc1,-1,.,.,18%,3%,.,.
CCN1C(=O)CC(c2ccc(OC(C)C)cc2)C1=O (stereo not drawn),-2,-11,-6%,20%[15.4 µM],-10%,0.4%,-1.1
CCOC(=O)c1cnc(SCc2nc(N)nc(Nc3ccccc3)n2)nc1N,-3,-1,8%,8%,7%,5.3%,-1.5
Clc1ccc(Cn2c(-c3cccnc3Cl)nc3ccccc32)cc1,7,-11,-10%,-17%,-9%,-8.1%,-0.6
Clc1ccc(-c2csc(=Nc3cccnc3)n2CCCn2ccnc2)cc1Cl,52,5,-8%,-1%,17%,-1.4%,4.8
CC(=O)N/C(=C\c1ccccc1)C(=O)NC(C)C(=O)O (stereo not drawn),8,0,12%,0%[15.4 µM],5%,-1.2%,-2.8
Cc1cc(C)n(-c2ccc(C(=O)NC(C)C)cc2)n1,-8,?,-1%,5%,8%,-0.4%,-1.0
CC(C)(OC(=O)c1ccc(C(F)(F)F)cc1)c1cc2ccccc2c(=O)o1,0,9,.,.,-10%,-3.4%,.
O=C(COC(=O)/C=C/c1ccco1)Nc1cccc([N+](=O)[O-])c1,-5,12,32µM*,-2%,4%,-2.5%,3.8
CN(C/C=C/c1ccccc1)C1CCCCC1,1,8,12%,-14%,-1%,.,3.0
CCCCN(Cc1ccco1)S(=O)(=O)c1c[nH]c(C(=O)OC)c1,-16,-18,-2%,27%,5%,-0.3%,5.0
CCCCC(=O)Nc1ccc(N2CCN(c3ccc(F)cc3)CC2)cc1,-13,17,9%,5%,2%,.,-0.3
CCCCOc1ccc(C(=O)N/C(=C\c2ccc(OC)cc2)C(=O)OCc2ccco2)cc1,10,14,8%,-40%,-16%,-3.4%,0.8
CCc1c(C)nc2ncnn2c1N1CCC(C(=O)Nc2ccc(C)cc2)CC1,6,4,12%,-2%,-10%,2.3%,4.7
O=C(c1ccco1)N1CCC(c2nc3c(nnn3Cc3ccccc3Cl)c(=O)[nH]2)CC1,38,1,3%,5%,-4%,.,-4.2
Cc1nc(C(=O)Nc2ccccc2)sc1C(=O)Nc1ccccc1,-1,5,-29%,-33%[inhibitor],-10%,.,4.7
C[C@H]1CN([C@@H](C)CO)C(=O)c2cc(NS(=O)(=O)c3ccc(Cl)cc3)ccc2O[C@@H]1CN(C)CC1CCCCC1,-15,.,.,.,-2%,-0.8%,.
Cc1ccc2nc(-c3ccncc3)c(NC3CCCCC3)n2c1,-5,-18,2%,-8%[15.4 µM],-9%,0.0%,4.7
CC1Cc2ccccc2N1CC(=O)c1c(N)n(Cc2ccccc2)c(=O)n(C)c1=O (stereo not drawn),27,1,6%,-24%,-20%,-0.8%,2.2
O=C1C(=O)N(CCN2CCOCC2)C(c2ccc(Cl)c(Cl)c2)/C1=C(/O)c1ccc2c(c1)OCO2 (stereo not drawn),-7,-2,8%,11%[15.4 µM],9%,-2.5%,.
CCN(Cc1ccncc1)C(=O)c1cc(COc2c(C)cccc2C)on1,6,0,7%,28%,-10%,1.7%,-1.5
